AF4-AF9 inh: inhibitors of AF4 peptide binding to AF9, primary screen, biochemical, AlphaScreen, biotin-AF4 peptide, FLAG-AF9, single point; Protein AF-9 (Homo sapiens), P42568; inhibition, % at 10 µM; 350,000 compounds, 0.47% hits;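 active = every replicate reaching a set inhibition limit, whatever the replicate mean, cut at about 25% in these data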;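 also: 0% = plate neutral control median and 100% = total signal loss; the record names both 10 and 1 µM as test concentration; the first replicate is given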
Target sequence (P42568 whole entry, looked up): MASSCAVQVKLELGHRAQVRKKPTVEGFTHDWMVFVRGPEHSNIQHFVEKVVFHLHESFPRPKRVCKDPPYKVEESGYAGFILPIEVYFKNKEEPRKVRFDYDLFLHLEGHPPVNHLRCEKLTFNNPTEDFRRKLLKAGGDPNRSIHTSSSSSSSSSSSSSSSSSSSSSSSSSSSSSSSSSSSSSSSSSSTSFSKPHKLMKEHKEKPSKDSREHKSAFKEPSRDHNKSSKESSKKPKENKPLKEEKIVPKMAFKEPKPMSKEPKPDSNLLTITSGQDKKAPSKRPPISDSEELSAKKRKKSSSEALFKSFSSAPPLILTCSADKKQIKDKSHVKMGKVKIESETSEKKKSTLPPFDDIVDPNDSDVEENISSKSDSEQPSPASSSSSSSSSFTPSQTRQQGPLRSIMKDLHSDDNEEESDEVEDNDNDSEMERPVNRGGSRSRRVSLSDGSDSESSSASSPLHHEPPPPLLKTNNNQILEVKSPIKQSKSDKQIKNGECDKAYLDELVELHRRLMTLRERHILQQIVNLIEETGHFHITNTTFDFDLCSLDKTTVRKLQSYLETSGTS
Ecoli rRNA inh: reduced GFP signal of wild-type E. coli, primary screen, bacterial rRNA inhibitor project, GFP/RFP fluorescence, OD600, single point | E. coli WT GFP vs humanized-ribosome RFP mutants, 24 h; active compounds read low; DMSO median 0, no signal -100 | GFP signal change (wild-type ribosome), % (test concentration not listed) | 350,000 compounds, 1.6% hits;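 active = significant combined selectivity score with lowered wild-type GFP, culture density cut under 30%, mutant RFP and density less affected; inactive = any of these conditions unmet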; also: one replicate is shown; some compounds called inactive have numbers as strong as hits
Ecoli rRNA inh OD600: further read-out of Ecoli rRNA inh, marked with its call; OD600 change, %; measured here: OD600 growth;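 optical density of the mix in the first replicate; 0 = DMSO median and -100 = no signal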
Ecoli rRNA inh RFP: also measured in Ecoli rRNA inh; calls as there; RFP signal change, %; measured here: RFP humanized mutant strains;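 first replicate; 0 = DMSO median and -100 = no signal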
* hit, by the source's call; & = joins results of further samples. A portion of the library; count on the stated rates, not on these rows.

SMILES	AF4-AF9 inh	Ecoli rRNA inh	Ecoli rRNA inh OD600	Ecoli rRNA inh RFP
O=S(=O)(c1ccccc1)N1[C@@H]2CNC[C@H]1C2c1ccc(/C=C/c2ccccc2)cc1 (some centres not stated)	-2.4&7.8	-8.7&-52.4	-20.1&-73.5	5.1&-5.2
CC(C)C#Cc1ccc([C@H]2[C@@H](CO)N3C(=O)CN(C(=O)NC4CCCCC4)C[C@H]23)cc1	-1.1	3.1	5.6	1.3
O=C(C1CCOCC1)N1CC(=O)N2[C@H](CO)[C@@H](c3ccc(C#CC4CCCC4)cc3)[C@H]2C1	3.1	2.9	8.3	4.1
N#C[C@H]1[C@H](c2ccccc2-c2ccccc2F)[C@H](CO)N1C(=O)c1ccccn1	-0.1	-5.4	-0.6	3.0
COCC#Cc1ccc([C@@H]2[C@@H](CO)N3C(=O)CN(C(=O)CN4CCOCC4)C[C@@H]23)cc1	-3.2	3.4	21.2	-1.8
CN(C)CC#Cc1ccc([C@H]2[C@@H](CO)N3C(=O)CN(C(=O)Cc4cccnc4)C[C@H]23)cc1	-2.5	7.9	-2.4	0.8
Cc1occc1-c1nnc(SCC(=O)N(C)c2ccccc2)o1	-0.2	0.5	4.8	-1.9
O=C1CNC[C@H]2[C@H](c3ccc(-c4ccccc4F)cc3)[C@@H](CO)N12	-2.4	3.5	-8.3	0.3
CN(C)C(=O)c1cccc(-c2ccc(C3[C@H]4CNC[C@@H]3N4Cc3cc(F)ccc3F)cc2)c1 (some centres not stated)	4.4&2.0	2.8&3.1	-3.1&21.5	-2.6&2.1
CN(C)C(=O)[C@H]1[C@H](CO)[C@H]2Cn3c(cccc3=O)[C@H]2N1CC1CCCCC1	-0.6	0.0	-1.5	-0.6

The closing 6 compounds of the part above are carried over, then new ones follow:
SMILES	AF4-AF9 inh	Ecoli rRNA inh	Ecoli rRNA inh OD600	Ecoli rRNA inh RFP
COCC#Cc1ccc([C@@H]2[C@@H](CO)N3C(=O)CN(C(=O)CN4CCOCC4)C[C@@H]23)cc1	-3.2	3.4	21.2	-1.8
CN(C)CC#Cc1ccc([C@H]2[C@@H](CO)N3C(=O)CN(C(=O)Cc4cccnc4)C[C@H]23)cc1	-2.5	7.9	-2.4	0.8
Cc1occc1-c1nnc(SCC(=O)N(C)c2ccccc2)o1	-0.2	0.5	4.8	-1.9
O=C1CNC[C@H]2[C@H](c3ccc(-c4ccccc4F)cc3)[C@@H](CO)N12	-2.4	3.5	-8.3	0.3
CN(C)C(=O)c1cccc(-c2ccc(C3[C@H]4CNC[C@@H]3N4Cc3cc(F)ccc3F)cc2)c1 (some centres not stated)	4.4&2.0	2.8&3.1	-3.1&21.5	-2.6&2.1
CN(C)C(=O)[C@H]1[C@H](CO)[C@H]2Cn3c(cccc3=O)[C@H]2N1CC1CCCCC1	-0.6	0.0	-1.5	-0.6
CN(C)C(=O)c1cccc(-c2ccc3c(c2)[C@@H]2[C@@H](CCN2C(=O)C2CCCC2)[C@@H](CO)N3)c1	1.7	-1.6	19.6	-3.1
COc1ccc2c3c([nH]c2c1)[C@H](CO)N(S(C)(=O)=O)CC31CCN(C(=O)CN(C)C)CC1	2.1	5.4	15.5	1.5
C[C@H](CO)N1C[C@H](C)[C@H](CN(C)C(=O)Nc2ccc(F)cc2)OCCCC[C@H](C)Oc2ccc(NS(=O)(=O)c3ccc(Cl)cc3)cc2C1=O	-5.5	-1.0	4.3	-1.0
COCC(=O)N(C[C@H]1N[C@H](CO)[C@@H]1c1ccc(C2=CCCCC2)cc1)C(C)C	6.9	3.7	8.4	1.1
O=C(C[C@@H]1C[C@H]2c3cc(NC(=O)NC4CCCCC4)ccc3O[C@H]2[C@H](CO)O1)NC1CCCC1	-5.2	-1.6	-15.2	0.9
O=C(NCC1CCCCC1)[C@@H]1[C@@H](CO)[C@@H]2Cn3c(ccc(C4=CCCC4)c3=O)[C@H]1N2	4.5	-0.1	-0.3	2.8
O=C(Cc1ccccn1)N1CC(=O)N2[C@@H](CO)[C@@H](c3ccc(C#CC4CCCC4)cc3)[C@@H]2C1	4.2	5.3	21.6	1.0
CC(=O)N(C)C[C@H]1Oc2cc(C#Cc3cccc(F)c3)ccc2S(=O)(=O)N([C@@H](C)CO)C[C@@H]1C	-0.1	-34.9	-65.3	13.4
CCC(=O)N1CC(=O)N2[C@H](CO)[C@@H](c3ccc(-c4ccc(C(=O)N(C)C)cc4)cc3)[C@@H]2C1	-0.2	-0.3	-1.8	0.5
N#C[C@@H]1[C@H](c2ccc(C#CC3CCCCC3)cc2)[C@@H](CO)N1C(=O)Nc1ccc(F)cc1	3.9	-8.2	-24.4	5.3
CN(C)CCCNC(=O)C[C@@H]1CC[C@@H]2[C@H](COc3ccc(NC(=O)NC4CCCC4)cc3C(=O)N2C)O1	-1.0	1.1	-6.4	1.4
COC(=O)[C@@]12C[C@@H](CC(=O)NCc3cccs3)C(=O)N(Cc3cccc4ccccc34)C1=CCC(C)(C)C2	0.3	11.5	-0.2	2.6
CC(=O)N[C@@H]1CC[C@@H](CCNC(=O)C2CCCCC2)O[C@@H]1CO	-2.9	-0.5	7.6	-0.9
C/C=C/c1ccc([C@H]2[C@@H](CO)N(CC3CCCC3)C23CN(C(=O)CC2CC2)C3)cc1	-1.1	-11.5	-37.5	34.3
OC[C@@H]1Nc2ccc(-c3cccc(F)c3)cc2[C@@H]2[C@H]1CCN2Cc1ccncc1	21.2	4.0	5.7	1.7
O=C(C[C@@H]1C=C[C@@H](NC(=O)CCN2CCCCC2)[C@H](CO)O1)Nc1ccccc1	-0.6	1.9	1.3	0.1
O=C(C1CC1)N1CC(=O)N2[C@H](C1)[C@@H](c1ccc(-c3cccnc3)cc1)[C@@H]2CO	-2.7	4.0	6.5	-2.4
N#C[C@H]1[C@@H](c2ccccc2C2=CCCC2)[C@H](CO)N1C(=O)NC1CCCCC1	0.3	-46.2	-66.1	-6.5
CN1c2ccc(-c3ccc(F)cc3)cc2[C@@H]2[C@@H](CCN2C(=O)c2ccc(F)cc2)[C@H]1CO	15.9	-5.4	-30.3	25.1
C[C@H](CO)N1C[C@H](C)[C@@H](CN(C)CC2CC2)Oc2c(NS(=O)(=O)c3ccc(Cl)cc3)cccc2C1=O	-9.1	0.3	7.3	1.0
CCN1[C@H](C(=O)NCCc2cn(C)cn2)[C@@H](CO)[C@@H]2Cn3c(ccc(-c4ccccc4)c3=O)[C@@H]21	0.3	3.8	4.4	-1.1
N#Cc1cccc(-c2ccc(C3[C@@H]4CN(C(=O)C5CCCCC5)C[C@H]3N4)cc2)c1 (some centres not stated)	-1.2&0.1	-0.4&1.2	-4.9&-11.1	4.5&-3.8
O=C(O)C[C@@H]1C=C[C@@H](NC(=O)CCN2CCCCC2)[C@H](CO)O1	-1.2	5.9	6.6	-2.4
O=C(Nc1cc(F)ccc1F)N1CC(=O)N2[C@@H](CO)[C@@H](c3ccc(C#CC4CCCCC4)cc3)[C@@H]2C1	1.7	-1.8	-3.0	16.8
O=C(NC1CCCC1)N1CC(=O)N2[C@H](C1)[C@H](c1ccc(/C=C/c3ccccc3)cc1)[C@@H]2CO	1.1	0.0	0.4	8.1
Nc1ccc(C(=O)Nc2ccc3cc(S(=O)(=O)O)ccc3c2)cc1	-2.1	0.8	11.6	-6.9
CCNC(=O)Nc1ccc2c(c1)C(=O)N(C)[C@@H]1CC[C@@H](CC(=O)NCc3ccccc3F)O[C@@H]1CO2	0.9	-4.7	-1.3	0.0
CN(C)C(=O)c1ccc(-c2ccc([C@@H]3[C@H](C#N)N[C@H]3CO)cc2)cc1	-2.0	8.2	15.9	2.7
COc1ccc(S(=O)(=O)Nc2ccc3c(c2)C(=O)N([C@@H](C)CO)C[C@@H](C)[C@@H](CN(C)S(=O)(=O)c2ccc(Cl)cc2)OCCCC[C@H](C)O3)cc1	-2.1	-2.8	-1.6	-3.8
O=C(NC1CCCCC1)N1[C@@H]2CNC[C@H]1C2c1ccc(-c2ccccc2F)cc1 (some centres not stated)	2.9	-7.0	-7.8	-1.5
c1ccc(CNc2ncnc3[nH]ncc23)cc1	-4.8	5.2	-1.6	0.9
Cc1noc(C)c1NC(=O)Nc1cccc2c1O[C@@H](CN(C)Cc1ccc(Cl)c(Cl)c1)[C@@H](C)CN([C@H](C)CO)C2=O	-2.7	-4.0	-8.8	-1.8
COc1ccc(NC(=O)N2CC(=O)N3[C@H](CO)[C@H](c4ccc(C#CCC5CCCC5)cc4)[C@H]3C2)cc1	5.8	-4.9	-37.9	29.6
C/C=C/c1ccc([C@@H]2[C@H](CO)N(C(=O)C3CCC3)C23CN(C(=O)NC(C)C)C3)cc1	-0.9	4.0	13.6	2.9
CN(C)C(=O)c1cccc(-c2ccc([C@H]3[C@@H](CO)N4C(=O)CN(C(=O)CC5CC5)C[C@@H]34)cc2)c1	-0.9	3.6	3.9	-6.4
COc1cccc(-c2ccc(C3[C@@H]4CN(C(=O)c5cnccn5)C[C@H]3N4)cc2)c1 (some centres not stated)	-0.6&5.8	-2.9&0.5	-14.7&2.4	0.6&-5.3
CCCN1C[C@H](C)[C@H](OC)CN(C)C(=O)c2ccc(NC(=O)C3CCOCC3)cc2OC[C@@H]1C	0.2	3.5	0.3	-1.2
C/C=C/c1ccc([C@@H]2[C@H](CO)N(C(=O)CN(C)C)C23CN(C(=O)C2CCCC2)C3)cc1	5.1	0.2	5.6	2.2
O=C(NCC1CCCCC1)[C@H]1N[C@H]2c3ccc(C4=CCCCC4)c(=O)n3C[C@H]2[C@@H]1CO	4.5	-11.9	-25.6	3.3
C[C@@H]1CN([C@@H](C)CO)C(=O)c2cc(NC(=O)NC3CCCCC3)ccc2O[C@@H](C)CCCCO[C@H]1CN(C)C(=O)Nc1ccccc1	-2.4	1.3	4.8	2.1
O=C1CNC[C@H]2[C@@H](c3ccc(-c4ccccc4F)cc3)[C@@H](CO)N12	-0.3	1.6	9.4	-2.6
COc1ccc2c3c([nH]c2c1)[C@@H](CO)NCC31CN(C(=O)Nc2ccc3c(c2)OCO3)C1	6.8	5.3	8.4	-2.1
C[C@@H]1CN([C@H](C)CO)C(=O)Cc2cc(N(C)C)ccc2O[C@@H]1CN(C)C(=O)Nc1ccc2c(c1)OCO2	-0.2	3.9	2.9	-1.3
CC(=O)N1Cc2cc(C(=O)NCC(F)(F)F)nc(-c3cccc(-c4cncnc4)c3)c2[C@@H]1CCO	2.3	0.5	7.1	-1.1
O=C(NC1CCCCC1)[C@H]1[C@H](CO)[C@H]2Cn3c(cccc3=O)[C@H]2N1CC1CCCC1	-4.0	2.1	-1.2	1.8
COc1ccc2c(c1)NC(c1cc(Cl)cc(Cl)c1O)c1cccn1-2 (configuration not stated)	-1.8	13.9	-2.3	2.0
CNC[C@@H]1Oc2ccc(NS(C)(=O)=O)cc2CC(=O)N([C@@H](C)CO)C[C@@H]1C	-3.0	3.9	9.1	-1.3
Cc1ccc(NC(=O)CN2C(=O)NC3(CCCCC3C)C2=O)cc1S(=O)(=O)N1CCOCC1 (configuration not stated)	2.8	-7.7	1.2	2.4
Cc1cc(C)c(NC(=O)CN2CCN(S(=O)(=O)c3ccc4c(c3)OCCO4)CC2)c(C)c1	-6.8	-7.2	-12.6	4.7
Cc1ccc(-c2csc(N)n2)cc1	4.0	-19.3	-29.6	-4.2

Other structures follow:
SMILES	AF4-AF9 inh	Ecoli rRNA inh	Ecoli rRNA inh OD600	Ecoli rRNA inh RFP
O=C(Nc1ccc(Cl)cc1)N[C@H]1CC[C@@H](CCNC(=O)c2cc(Cl)cc(Cl)c2)O[C@@H]1CO	-2.7	-15.1	-8.6	15.8
Fc1ccc(F)c(CN2[C@@H]3CNC[C@H]2C3c2ccc(-c3ccccc3)cc2)c1 (some centres not stated)	3.4&0.9	4.1&-57.8	-30.4&-73.8	18.2&-11.5
O=C(C1CC1)N1CC2(C1)[C@H](c1ccccc1)[C@H](CO)N2C(=O)CC1CC1	-3.2	1.4	6.5	-1.0
COc1cccc(-c2ccccc2[C@H]2[C@@H](CO)N(C(=O)Cc3ccccc3)[C@H]2C#N)c1	-1.7	-8.9	-19.2	-4.1
O=C(c1cnccn1)N1CC(=O)N2[C@H](C1)[C@H](c1ccc(C#CC3CCCC3)cc1)[C@@H]2CO	9.1	0.4	-3.4	1.4
COc1ccc2c3c(n(C)c2c1)[C@@H](CO)N(CC1CC1)CC31CCN(C(=O)c2cccc(F)c2)CC1	-4.2	-0.4	-3.0	-0.4
Cc1ccc(NC(=O)COC(=O)c2ccc(C)c(S(=O)(=O)N3CCOCC3)c2)cc1	0.8	4.2	6.3	1.0
O=C(C1CC1)N1CC2(C1)[C@H](c1ccccc1)[C@@H](CO)N2C(=O)CC1CC1	-1.7	-1.3	4.2	-1.8
O=C(C1CCCCC1)N1CC(=O)N2[C@@H](CO)[C@@H](c3ccc(Br)cc3)[C@@H]2C1	-0.8	2.9	4.6	-3.8
O=C(Nc1ccccc1)N1CC(=O)N2[C@H](C1)[C@@H](c1ccc(C#CC3CCCC3)cc1)[C@@H]2CO	7.4	-6.1	-27.2	8.3

Screening results as filed in PubChem BioAssay.
